Source: PubChem
Calb FLC: affects C. albicans growth with fluconazole | C. albicans CaCi-2 (fluconazole-resistant clinical isolate) + fluconazole, Alamar Blue growth, 48 h | growth inhibition, % (concentration not given with the values) | 300,000 compounds, 0.57% hits;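 active means most replicates above 75%; inconclusive means exactly half above 75%; inactive means most below 75%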;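 further: all wells also contain fluconazole at 8 µg/ml as a sub-toxic cotreatment; 0% = median of DMSO wells and 100% = median of geldanamycin control wells; wells of about 8 µL received 7.5 nL stock; the first replicate is given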
Beta apoptosis: blocks beta cell apoptosis; INS-1E cytokine-induced death, ATP luminescence, 48 h; percent of positive-control rescue, neutral wells zero; protection from apoptosis, % (test concentration not listed); 300,000 compounds, 0.8% hits;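 active means all replicates at 75% or more, or half of them and the mean; inconclusive means half reach 75% but not the mean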;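 further: 0% = cytokine-treated negative control wells and 100% = positive control rescue; higher means more ATP so stronger rescue from cytokine killing; wells of about 40 µL received 100 nL stock; the first replicate is given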
T cruzi inh: blocks replication of Trypanosoma cruzi; T. cruzi beta-gal in NIH3T3, luminescence, 90 h; inhibition, % (no concentration beside the values); 300,000 compounds, 1.4% hits;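 active means mean inhibition across valid replicates above about 55%, limit read from the data; inconclusive means mean below that limit but half or more replicates reach it; inactive means mean below it, under half of replicates reach it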;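 further: signal also drops with host cell toxicity which is not excluded here; 0% = plate median of DMSO wells and 100% = zero luminescence signal; higher percent means less beta-gal luminescence so fewer parasites; stock transfer was 50 nL into about 50 µL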
ALR H2O2 inh: blocks human ALR sulfhydryl oxidase activity. P55789. purified ALR, DTT oxidation, H2O2 HRP-luminol luminescence. inhibition, % (no concentration beside the values). 290,000 compounds, 3.8% hits. AID 485317;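 active means mean and each replicate at 75% or more; inconclusive means only one of the two met; inactive means neither met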;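 further: stock transfer was 7.5 nL into about 7.5 µL; 0% = neutral wells and 100% = wells with inactivated enzyme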
Target sequence (P55789 whole entry, looked up): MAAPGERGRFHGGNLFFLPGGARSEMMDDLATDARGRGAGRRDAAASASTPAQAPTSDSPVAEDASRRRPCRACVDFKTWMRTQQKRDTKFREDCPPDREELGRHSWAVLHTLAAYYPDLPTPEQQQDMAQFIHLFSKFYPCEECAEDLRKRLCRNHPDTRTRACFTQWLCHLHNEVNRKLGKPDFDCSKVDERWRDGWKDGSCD
AF4-AF9 inh: blocks AF4 peptide binding to human AF9 | AlphaScreen, biotin-AF4 peptide binding to FLAG-AF9 | inhibition, % at 10 µM | 350,000 compounds, 0.47% hits;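 active means every replicate reaching a set inhibition limit, whatever the replicate mean, cut at about 25% in these data; inconclusive means mean inhibition reaches that limit but some replicates miss it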;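 further: 0% = plate neutral control median and 100% = total signal loss; the record names both 10 and 1 µM as test concentration; the first replicate is given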
Target sequence (P42568 whole entry, looked up): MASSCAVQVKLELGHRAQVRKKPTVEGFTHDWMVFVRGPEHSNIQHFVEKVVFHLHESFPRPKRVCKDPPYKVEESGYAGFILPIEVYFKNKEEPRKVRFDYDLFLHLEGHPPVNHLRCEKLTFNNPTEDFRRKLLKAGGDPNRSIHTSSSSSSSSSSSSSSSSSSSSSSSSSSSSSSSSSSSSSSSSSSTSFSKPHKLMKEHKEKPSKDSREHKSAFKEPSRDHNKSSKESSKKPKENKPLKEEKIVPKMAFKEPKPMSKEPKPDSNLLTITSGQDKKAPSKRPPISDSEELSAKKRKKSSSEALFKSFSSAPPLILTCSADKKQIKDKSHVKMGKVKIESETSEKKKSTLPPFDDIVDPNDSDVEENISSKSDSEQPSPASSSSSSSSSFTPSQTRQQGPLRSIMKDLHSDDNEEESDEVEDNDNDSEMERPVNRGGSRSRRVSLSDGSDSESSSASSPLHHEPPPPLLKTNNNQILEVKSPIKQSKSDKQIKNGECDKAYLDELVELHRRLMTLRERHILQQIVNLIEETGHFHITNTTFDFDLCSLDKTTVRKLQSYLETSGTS
FGF22 binding: shifts melting point of recombinant human FGF22. 340,000 compounds, 1.5% hits. calls only at 9.99 µM. recombinant FGF22 thermal shift, SYPRO orange fluorescence; percent of sucrose octasulfate shift, DMSO zero. AID 651658;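 active means melting point raised past a set limit in the mean and every replicate; inconclusive means no clear call; three in four hits are not shown here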
Target sequence (Q9HCT0 whole entry, looked up): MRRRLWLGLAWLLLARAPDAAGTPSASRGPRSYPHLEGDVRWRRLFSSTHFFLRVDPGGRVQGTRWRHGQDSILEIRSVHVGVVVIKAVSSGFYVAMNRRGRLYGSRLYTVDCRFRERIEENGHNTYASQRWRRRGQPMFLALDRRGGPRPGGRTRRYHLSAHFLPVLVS
Ecoli rRNA inh: selective bacterial rRNA inhibition in E. coli. E. coli WT GFP vs humanized-ribosome RFP mutants, fluorescence, 24 h; active compounds read low; DMSO median 0, no signal -100. GFP signal change (wild-type ribosome), % (concentration not given with the values). 350,000 compounds, 1.6% hits. AID 720706;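 active means significant combined selectivity score with lowered wild-type GFP, culture density cut under 30%, mutant RFP and density less affected; inactive means any of these conditions unmet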; further: one replicate is shown; some compounds called inactive have numbers as strong as hits
RanGTP-Imp inh: disruptors of Ran-importin-beta complex formation – biochemical, FRET, CFP-Ran, YFP-importin-beta, homogeneous, primary screen; 300,000 compounds, 1.1% hits; AID 2216; cell-free CFP-Ran/YFP-importin-beta FRET ratio; inhibition, % (no concentration beside the values);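 active means most replicates above 15%; inconclusive means exactly half above 15%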;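 further: 0% = DMSO wells and 100% = Ran loaded with GDP instead of GTP; wells of about 40 µL received 100 nL stock; the first replicate is given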
Ecoli rRNA inh OD600: recorded beside Ecoli rRNA inh, whose call it bears; OD600 change, %; measured here: OD600 growth;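 optical density of the mix in the first replicate; 0 = DMSO median and -100 = no signal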
Ecoli rRNA inh RFP: further read-out of Ecoli rRNA inh, marked with its call; RFP signal change, %; measured here: RFP humanized mutant strains;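 first replicate; 0 = DMSO median and -100 = no signal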
Starred values were filed as active, the others as inactive; i = inactive; ? = inconclusive; nt = no result given.

SMILES | Calb FLC | Beta apoptosis | T cruzi inh | ALR H2O2 inh | AF4-AF9 inh | FGF22 binding | Ecoli rRNA inh | Ecoli rRNA inh OD600 | Ecoli rRNA inh RFP | RanGTP-Imp inh
CN(C)C(CNC(=O)CCc1nc2sc3c(c2c(=O)[nH]1)CCCC3)c1ccccc1 (stereo not drawn) | 1 | 3 | -6 | -2 | 1.9 | i | -7 | -8 | -0.7 | nt
COc1ccc(C)cc1-n1c(N)c(C#N)c(C#N)c1-c1ccc(OC)c(OC)c1OC | 1 | 9 | 15 | -11 | nt | nt | nt | nt | nt | 0.9
O=C(c1cccc(C(F)(F)F)c1)N1CCN(CCc2ccccc2)CC1 | 6 | 0 | 1 | -11 | 1.9 | i | 3 | -1 | 2.8 | ?
COc1ccccc1NC(=O)C(=O)NNC(=O)COc1ccc2ccccc2c1 | 26 | 3 | -4 | nt | 0.5 | i | -21 | -48 | -8.7 | 1.4
CCc1cccc(C)c1N(C(=O)Cn1c(CO)nc2ccccc21)C(C)COC (stereo not drawn) | 0 | 0 | -2 | -13 | nt | nt | nt | nt | nt | 0.4
O=C(O)C1CC=CCC1C(=O)N1CCN(c2nc(-c3ccccc3)c3ccccc3n2)CC1 (stereo not drawn) | -17 | -3 | 10 | -8 | nt | nt | nt | nt | nt | 12
O=[N+]([O-])c1ccc(N2CCN(Cc3ccc4c(c3)OCO4)CC2)nc1 | -5 | -2 | -5 | nt | 4.1 | i | -1 | 0 | 6.7 | 5.8
O=C(Nc1cccnc1)c1ccc(F)c(S(=O)(=O)N2CCOCC2)c1 | -3 | nt | -2 | 5 | -2.9 | i | 0 | 10 | -2.1 | -0.6
COC(=O)c1scc(C)c1NC(=O)Nc1ccccc1 | 12 | 4 | -9 | -12 | nt | nt | nt | nt | nt | -5.5
COC(=O)c1ccc(S(=O)(=O)N2C3CCC2CC(NC(=O)C2CC2)C3)cc1 (stereo not drawn) | -8 | 6 | -17 | 2 | -53 | i | 10 | -2 | 0.0 | -1.2
Cc1cccc(NC(=S)NNC(=O)CC(C)O)c1C (stereo not drawn) | -4 | -1 | 2 | 12 | nt | nt | nt | nt | nt | -4.3
Cc1ccc(CSCC(=O)N(C)CC(=O)Nc2c(Cl)cccc2Cl)cc1 | -8 | 4 | -14 | -2 | 5.8 | i | 0 | -3 | -1.5 | 0.9
CC(OC(=O)C1CCN(S(=O)(=O)c2ccc(F)cc2)CC1)C(=O)NC1CCCCC1C (stereo not drawn) | -8 | 2 | -7 | 3 | -1.1 | i | 0 | -2 | 0.0 | nt
NC(=O)c1ccc(Oc2ccc(-c3nnco3)cc2)c([N+](=O)[O-])c1 | -26 | -4 | 1 | nt | 1.8 | i | -4 | 7 | 0.3 | -1.0
COCCC(=O)N1CCC(Oc2ccc(C(=O)NCc3nccn3C)cc2)CC1 | 1 | -17 | 2 | -4 | 0.3 | i | 12 | 6 | -1.4 | 0.2
NS(=O)(=O)c1ccc(NC=C2C(=O)OC3(CCCCC3)OC2=O)cc1 | -21 | 2 | 33 | -3 | nt | nt | nt | nt | nt | nt
COc1cccc(-c2cc(C(=O)Nc3ccc(N(C)C(C)=O)cc3)c3cc(Br)ccc3n2)c1 | -13 | 15 | 61* | -2 | 1.0 | i | 4 | 8 | 4.0 | 1.0
Clc1ccc(CNC2CCCC2)cc1 | -2 | nt | -18 | -4 | nt | nt | nt | nt | nt | 3.9
Cc1nc2ccccc2c(=O)n1CCc1ccccc1 | -13 | -6 | -6 | -20 | -1.8 | i | 8 | 5 | 3.6 | 1.4
O=C(C1CCC1)N1CCc2cc(S(=O)(=O)NCC3COc4ccccc4O3)ccc21 (stereo not drawn) | -71 | -6 | 7 | -10 | nt | nt | nt | nt | nt | -0.9
O=C(CCNC(=O)c1ccccc1)Oc1ccc([N+](=O)[O-])cc1 | 16 | 2 | -15 | 10 | nt | nt | nt | nt | nt | 1.9
COc1cc([N+](=O)[O-])ccc1-c1ccc(/C=N/NC(N)=O)o1 | 1 | 7 | 2 | 17 | -5.1 | i | 3 | 8 | 1.7 | -13
Cc1ccc(C(=O)CC2(O)C(=O)N(C)c3ccccc32)o1 (stereo not drawn) | 2 | -8 | -6 | -4 | -0.5 | i | 0 | 7 | -0.9 | -0.6
O=C(NCc1ccco1)c1cc(-c2ccc3c(c2)OCO3)on1 | -7 | 3 | -9 | -10 | nt | nt | nt | nt | nt | ?
CC(=O)N1CCN(S(=O)(=O)c2cccc(C(=O)NNC(=O)COc3ccc(Cl)cc3C)c2)CC1 | -10 | 4 | -2 | 1 | nt | nt | nt | nt | nt | -1.6
CC1Nc2ncnc(N3CCOCC3)c2N(Cc2ccc(Cl)cc2)C1=O (stereo not drawn) | -6 | nt | 8 | 1 | 6.1 | i | 2 | 14 | 5.1 | 2.3
O=S1(=O)N=C2CCCCCN2C(c2ccccc2)N1 (stereo not drawn) | 13 | -5 | -10 | -5 | 1.2 | i | 7 | 14 | 3.0 | 1.6
COC(=O)c1c(NC(=O)CCS(=O)(=O)c2ccccc2)sc2c1CCN(C)C2 | 5 | -30 | 35 | 1 | -2.2 | i | 21 | 9 | -0.5 | 79*
COc1ccc(OC)c(NC(=O)N2CCCC(C(=O)c3ccccc3OC)C2)c1 (stereo not drawn) | ? | 0 | -2 | -8 | 5.2 | i | -13 | -16 | -11 | 0.5
O=C(NC(=S)Nc1ccc(Cl)cn1)C(c1ccccc1)c1ccccc1 | -19 | 1 | 17 | 3 | nt | nt | nt | nt | nt | 1.6
O=C(COC(=O)/C=C/c1ccccc1)NCCNC(=O)COC(=O)/C=C/c1ccccc1 | nt | -2 | -5 | -4 | 2.1 | i | 14 | 6 | 0.4 | 3.3
CCCCC(CC)C(=O)Nc1cc(C(=O)NCCC)ccc1N1CCC2(CC1)CC(c1cccc(Br)c1)=NO2 (stereo not drawn) | -3 | 7 | 30 | -8 | nt | i | 10 | 12 | 2.4 | -2.6
CCC(=O)N1CCc2cc(S(=O)(=O)N3CCN(c4ccccc4Cl)CC3)ccc21 | -5 | -2 | -9 | 1 | -3.0 | i | 10 | 7 | 2.0 | -1.0
O=S(=O)(c1cc(C(F)(F)F)ccc1Cl)N1CCN(c2ccccn2)CC1 | 2 | 0 | 19 | -4 | -4.0 | i | -15 | -13 | 4.1 | 2.2
CCc1nc2c(sc3nc4c(cc32)COC(C)(C)C4)c(=O)n1Cc1ccccc1 | -14 | -11 | 0 | -4 | nt | nt | nt | nt | nt | -2.2
CCOC(=O)[C@H]1[C@H]2COc3cc(OC)ccc3[C@@H]2N2C(=O)CN(Cc3ccc(C)cc3)C(=O)[C@@]12C | nt | -7 | nt | 1 | 3.1 | i | -5 | -11 | 2.4 | nt
Fc1ccc(Nc2nc(Oc3ccccc3F)nc(N3CCCC3)n2)cc1 | -4 | 10 | 34 | -4 | nt | nt | nt | nt | nt | 3.7
COC(=O)Cn1c(=O)oc2ccc(C)cc21 | 5 | -3 | -15 | 1 | -1.1 | i | 10 | 1 | 0.0 | -2.1
C/C(Cc1ccccc1)=N\NC(=O)CNC(=O)c1ccc(Cl)cc1 | -6 | -11 | 14 | -2 | -2.0 | i | 15 | 15 | 3.2 | -2.6
COc1ccc(-c2ccc(=O)n(Cc3cccc(Cl)c3)n2)cc1 | 19 | 2 | 12 | 1 | -0.1 | i | -32 | -68 | -6.7 | 2.3
CCOC(=O)c1sc(N(Cc2ccccc2)C(=O)COC(=O)c2ccc(O)cc2)nc1C | 3 | 5 | 30 | 1 | nt | nt | nt | nt | nt | -2.0
CCSc1nn2c(=O)c3ccccc3nc2s1 | -5 | 0 | 6 | 1 | nt | nt | nt | nt | nt | -2.1
O=C(Nc1ccc(-c2nc3ccccc3[nH]2)cc1)c1c(F)c(F)c(F)c(F)c1F | -9 | -10 | 10 | -1 | -2.2 | nt | 23 | 17 | 1.4 | 0.0
CCS(=O)(=O)c1ccc2oc(Nc3cc(Cl)ccc3OC)nc2c1 | 3 | -3 | 15 | -18 | 3.0 | i | 6 | 7 | -0.9 | -1.9
CCCNC(=O)Cc1c(OC)ccc2cc(Br)ccc12 | 9 | -2 | 2 | -15 | nt | nt | nt | nt | nt | -1.5
Cc1ccc2c(=O)oc(N(C)C)nc2c1 | -25 | 3 | -7 | -5 | -2.1 | i | 10 | 5 | 2.2 | -2.2
Cc1ccc(NC(=O)CCC(=O)c2cc(C)sc2C)nc1 | 0 | -13 | -4 | nt | 7.2 | i | -1 | -8 | -2.2 | -5.8
COc1cccc(NC(=O)CCN2CCN(C)CC2)c1 | 11 | -5 | -9 | -6 | 4.6 | i | 3 | 11 | -4.8 | -0.1
COc1ccc(OC)c(C(=O)/C=C/c2cccnc2)c1 | 0 | -10 | -20 | 1 | 3.3 | i | 6 | 5 | -4.5 | 1.8
CC(=O)C1=C(C)NC(SCC(=O)c2ccc(F)cc2)=C(C#N)C1CC(C)C (stereo not drawn) | 5 | 9 | -21 | 0 | -6.1 | nt | -11 | -11 | 2.3 | 2.7
CC(C)=C1SC(N2CCN(c3ccc(C)c(Cl)c3)CC2)=NC1=O | 9 | -14 | 10 | nt | 5.3 | i | -1 | -2 | -2.7 | 4.0
O=C(COC(=O)CCSc1ccccc1)NCc1ccccc1 | 9 | -7 | -9 | -12 | -2.8 | i | 1 | -2 | 3.3 | 1.7
COc1ccc(Br)cc1/C=N/NC(=O)c1ccc(OC)c(OC)c1 | 2 | -11 | -4 | -4 | 4.3 | i | -6 | 2 | 9.1 | 3.2
CCNc1sc(C(=O)c2cccs2)c(N)c1-c1nc2ccccc2s1 | 0 | 12 | 18 | -1 | nt | nt | nt | nt | nt | 3.2
CCCCC(=O)NNC(=O)N1c2ccccc2Sc2ccccc21 | -5 | 5 | 4 | 99* | 4.2 | i | 1 | 5 | 0.0 | -4.3
O=c1c2ccccc2[nH]c(=S)n1Cc1cccnc1 | 1 | 3 | -28 | 23 | -0.5 | i | 3 | -7 | -1.2 | 7.3
CCOC(=O)C1CCN(C(=O)c2ccccc2NC(=O)c2ccc(Br)cc2)CC1 | 1 | 2 | -5 | -9 | -5.3 | i | 6 | -4 | 4.3 | -0.8
O=C(NC(O)C(=O)c1ccccc1)c1cccs1 (stereo not drawn) | -1 | -1 | 0 | 91* | -25 | i | 2 | 0 | 7.8 | 1.0
Cc1ccc(Sc2c(C)[nH]n(C(C)(C)C)c2=O)cc1 | 20 | -6 | -9 | 21 | nt | nt | nt | nt | nt | -4.9
Cc1ccc(NC2c3ncccc3C(=O)N2Cc2ccco2)c(C)c1 (stereo not drawn) | 3 | -1 | -9 | 44 | 3.0 | i | 4 | 4 | 1.8 | 0.0

Some of the compounds tested. The share of hits here may be higher or lower than overall.
